# Source: PubChem BioAssay
# Six1-Eya2 blk: inhibitors of human Six1/Eya2 interaction | Q15475+O00167 | AlphaScreen GST-Six1/His-Eya2 binding, biochemical; stronger effect = lower value; control for the full effect not named in the record | activity change, % (test concentration not listed) | hit rate 0.56% among 360,000 | AID 651725; in the data active = activity change below about -65%; inconclusive = about -30% to -65%; inactive = above about -30%; further: on the % scale 0 is the no-effect control and ±100 the full control effect; compound concentration not given in the record
# Target sequence (O00167 whole entry, looked up): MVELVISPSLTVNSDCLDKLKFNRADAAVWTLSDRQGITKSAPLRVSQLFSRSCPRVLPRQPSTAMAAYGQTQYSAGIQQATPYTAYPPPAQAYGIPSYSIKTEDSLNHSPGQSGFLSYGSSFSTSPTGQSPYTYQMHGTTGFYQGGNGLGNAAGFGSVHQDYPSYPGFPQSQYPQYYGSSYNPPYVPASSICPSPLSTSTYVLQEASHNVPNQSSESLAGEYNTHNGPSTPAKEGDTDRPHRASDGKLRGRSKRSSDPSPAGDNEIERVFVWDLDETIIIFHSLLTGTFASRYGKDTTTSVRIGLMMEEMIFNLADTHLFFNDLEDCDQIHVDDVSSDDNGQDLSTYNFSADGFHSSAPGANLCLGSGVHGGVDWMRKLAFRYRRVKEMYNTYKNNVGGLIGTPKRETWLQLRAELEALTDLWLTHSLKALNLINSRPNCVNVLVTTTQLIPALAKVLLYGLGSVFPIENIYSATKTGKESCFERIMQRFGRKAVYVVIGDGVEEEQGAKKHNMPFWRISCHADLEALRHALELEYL
# Target sequence (Q15475 whole entry, looked up): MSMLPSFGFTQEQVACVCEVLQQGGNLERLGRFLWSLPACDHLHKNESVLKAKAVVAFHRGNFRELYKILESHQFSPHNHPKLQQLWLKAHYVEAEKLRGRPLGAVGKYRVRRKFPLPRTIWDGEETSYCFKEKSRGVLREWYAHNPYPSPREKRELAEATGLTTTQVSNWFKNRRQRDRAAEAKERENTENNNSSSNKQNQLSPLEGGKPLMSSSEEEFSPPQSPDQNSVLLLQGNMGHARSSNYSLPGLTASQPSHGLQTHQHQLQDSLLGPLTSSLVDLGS
#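 Homogeneous AlphaScreen proximity assay pairing GST-Six1 with His-tagged Eya2 (added as 5X mix: 250 nM and 500 nM) in 50 mM Tris pH 8.0, 300 mM NaCl, 1 mM TCEP. Glutathione donor and nickel acceptor beads; 1 h, 37 °C, dark.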
# CtBP-E1A inh: CtBP/E1A binding inhibition; AlphaScreen GST-E1A/His-CtBP binding, 1536-well; stronger effect = lower value; control for the full effect not named in the record; activity change, % (no concentration beside the values); hit rate 0.49% among 340,000; AID 651724; in the data active means activity change below about -65%; inconclusive means about -30% to -65%; inactive means above about -30%; further: on the % scale 0 is the no-effect control and ±100 the full control effect; compound concentration not given in the record
#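 AlphaScreen with 125 nM GST-E1A and 125 nM His-CtBP (5X stocks) in Tris pH 8.0, 300 mM NaCl, BSA, Tween 20, TCEP. Compounds preincubated 2 h at 37 deg C, then glutathione donor/nickel acceptor beads added for 1 h at 37 deg C in dark.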
# D2 ag: agonists of human D2 dopamine receptor (beta-arrestin). hit rate 0.084% among 360,000. AID 624465. P14416. DiscoveRx PathHunter D2 beta-arrestin, luminescence, 90 min; 100% = 57 uM dopamine signal. activation, % (no concentration beside the values); in the data active = activation above about 40%; inconclusive = about 15% to 40%; inactive = below about 15%; further: compound concentration not given in the record; the text of the record calls up to 30% inactive
#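 DiscoveRx PathHunter D2 beta-arrestin cells (2,100/well) attached overnight, then compound-stimulated 90 min at 37 C in HBSS/10 mM HEPES/0.1% Tween-20 buffer; beta-galactosidase complementation read by luminescence after 1 h at ambient temperature. Dopamine 57 uM final (EC100) as control.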
# PINK1 expr mod: modulators of PINK1 expression; hit rate 0.2% among 410,000; AID 624263; Potency, µM (highest dose often 76.6 µM), without a hit: top-dose activation (PINK1 increase), actives largely listed as activators; PINK1 immunofluorescence, high-content cytometry, 24 h; active = well fitted activation curve with a large enough effect; inconclusive = small, poorly fitted or top-dose-only effect; inactive = flat fitted curve, though single readings scatter; cell line not stated here;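 further: potency means the concentration at half of the fitted maximal effect; % of control where 0% means no effect; nearly all actives have a fitted effect of over 65% in size; a mitochondrial uncoupler was the plate control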
#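 PINK1 protein level read as immunofluorescence by microplate cytometer in a fixed, stained stable cell line after 24 h exposure to five compound concentrations, with CCCP as control.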
# D2 PAM: positive allosteric modulators of human D2 dopamine receptor. potentiation, % (concentration not given with the values). DiscoveRx D2 beta-arrestin cells, luminescence, 90 min; 100% = 57 uM dopamine signal. hit rate 0.23% among 360,000; active = potentiation of 50% or more; inconclusive = 30% to 50%; inactive = 30% or less;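 further: compound concentration not given in the record; tested on top of an EC20 dose of dopamine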
#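 PathHunter beta-arrestin assay in DiscoveRx D2 cells. Compounds were added with an EC20 of dopamine (50 nM final) for 90 min at 37 deg C. Luminescence was read 1 h after detection reagent, with 57 uM dopamine as the EC100 control.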
# TRPML1 ag: human mucolipin-1 channel agonism; Q9GZU1; TRPML1-expressing cells, Ca2+ dye fluorescence, FDSS; host cell line not named in the record; reference of the full effect not given here; activation, % (test concentration not listed); hit rate 0.12% among 410,000; AID 624414; in the data active = activation above about 50%; inconclusive = about 30% to 50%; inactive = below about 30%; further: 0% is about no effect; the text of the record puts the active cut at 80%
#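 Tet-induced TRPML1-DL cells, 1,500 per well, cultured overnight, were loaded with a no-wash Ca2+ dye for 45–90 min. Calcium fluorescence was recorded on the FDSS for 110 s after compound addition, before the EC80 agonist (4 uM 54-4) was added.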
# * = called active by the depositor; ? = inconclusive; . = no result given; & = joins results of further samples; [ ] = remark or other dose.
SMILES,Six1-Eya2 blk,CtBP-E1A inh,D2 ag,PINK1 expr mod,D2 PAM,TRPML1 ag
CC(=O)Nc1nnc(SCC(=O)c2ccc3c(c2)Cc2ccccc2-3)s1,-1,8,-4.0,2.4%,2,1.6
O=C(c1cc2cc([N+](=O)[O-])ccc2oc1=O)N1CCOCC1,-6,-1,-3.8,1.1%,-7,0.7
N#CCCC1CCCC=C1N(Cc1ccccc1)C(=O)C(Cl)Cl (stereo not drawn),-1,-1,-2.1,-0.8%,-1,23
C/C(=N/NC(=O)c1ccc(C(C)(C)C)cc1)c1ccccn1,-88*,-1,-8.3,6.0%,-34,0.2
CN(C)S(=O)(=O)c1cccc(-c2nnc(SCc3cc(Cl)cc4c3OCOC4)n2N)c1,0,3,-3.6,-1.3%,-6,0.0
CCOCCOCCC(C(=O)O)P(=O)(c1ccccc1)c1ccccc1 (stereo not drawn),25,3,-2.1,1.2%,1,0.0
O=C(NCCNC(=O)c1cccs1)c1ccco1,6,8,0.4,-0.8%,8,0.7
CCOC(=O)[C@]12CCC=C1N(Cc1ccc(Cl)cc1Cl)C(=O)[C@H](CC(=O)NCCCOC)C2,1,-5,.,-1.0%,.,0.5
C/C(=N/Nc1ncc(Br)cn1)c1ccc([N+](=O)[O-])cc1,-2,0,-5.1,8.6%,-1,0.8
CCN(CC(=O)Nc1cc(Cl)ccc1OC)CC(=O)NC1CCS(=O)(=O)C1 (stereo not drawn),8,11,-2.4,0.5%,-10,1.6
Cc1ccc(-c2onc3ccc(Cl)cc23)cc1,19,-17,5.7,18%,28,0.6
O=C(Nc1ccccc1F)NC1CCCCCCC1,9,7,0.7,2.7%,-14,0.9
S=c1ccc2ccccc2[nH]1,-6,9,-2.4,-0.2%,-6,-0.3
NC(c1ccc(F)c(F)c1)c1nc(-c2ccc3ccccc3c2)cs1 (stereo not drawn),2,13,1.9,11%,-6,-0.1
CCOC(=O)N1CCN(C(=O)c2csc3c2CCCCC3)CC1,3,4,1.2,2.1%[38.3 µM],7,-0.2
CCCCN1CC[C@H]2C=CC[C@@H](C(=O)Nc3ccc(Cl)c(C(F)(F)F)c3)[C@H]2C1=O,-1,-22,-0.5,6.7%,-10,0.8&-0.4
O=C(NCCOc1ccccc1)c1ccccc1F,6,0,-0.6,-1.3%,-19,-0.1
COc1cccc(NC(=O)CN(C)C(=O)CCNC(=O)c2ccccc2Cl)c1,2,10,-1.0,1.2%,20,0.5
CN(C(=O)c1cccc(NC(=O)Cc2cccc(NC(=O)C3CCCN(C(=O)CCc4ccccc4)C3)c2)c1)C1CCC1 (stereo not drawn),-2,-4,1.8,-0.1%,5,1.9
COc1ccc(C2C(C#N)=C(N)Oc3cc(N)ccc32)cc1OC (stereo not drawn),-7,-4,1.0,6.2%,-5,0.0
CCCCN1C(=O)CC(N2CCOCC2)C1=O (stereo not drawn),18,0,0.0,-1.2%,-4,-0.6
C=C1CCC2[C@](C)(CO)[C@H](O)CC[C@@]2(C)[C@@H]1/C=C/C1=CCOC1=O (stereo partly drawn),9,6,-4.0,0.0%,-9,.
C/C(CC(=O)Nc1cccc(C(F)(F)F)c1)=N\NC(=O)c1cnccn1,-15,0,-0.6,1.3%,-9,-0.1
COc1ccc(C(CNC(=O)c2cccc(S(=O)(=O)N3CCCCC3)c2)N2CCCC2)cc1 (stereo not drawn),-3,-14,-3.5,-0.1%,-3,1.6
CC1CCN(C(=O)Cn2ncc3c4ccccc4n(C)c3c2=O)CC1,4,2,2.1,0.7%,-5,1.1

# Gathered by group, the compounds so far with an aryl thioether with sulfur outside any ring.
SMILES,Six1-Eya2 blk,CtBP-E1A inh,D2 ag,PINK1 expr mod,D2 PAM,TRPML1 ag
CC(=O)Nc1nnc(SCC(=O)c2ccc3c(c2)Cc2ccccc2-3)s1,-1,8,-4.0,2.4%,2,1.6
CN(C)S(=O)(=O)c1cccc(-c2nnc(SCc3cc(Cl)cc4c3OCOC4)n2N)c1,0,3,-3.6,-1.3%,-6,0.0

# Back to the main list, repeating the three entries before the break.
SMILES,Six1-Eya2 blk,CtBP-E1A inh,D2 ag,PINK1 expr mod,D2 PAM,TRPML1 ag
C/C(CC(=O)Nc1cccc(C(F)(F)F)c1)=N\NC(=O)c1cnccn1,-15,0,-0.6,1.3%,-9,-0.1
COc1ccc(C(CNC(=O)c2cccc(S(=O)(=O)N3CCCCC3)c2)N2CCCC2)cc1 (stereo not drawn),-3,-14,-3.5,-0.1%,-3,1.6
CC1CCN(C(=O)Cn2ncc3c4ccccc4n(C)c3c2=O)CC1,4,2,2.1,0.7%,-5,1.1
Cc1ccccc1CN1CCNC(=O)C1CC(=O)NC1CCCCCCC1 (stereo not drawn),1,4,-4.9,1.9%,-11,0.1
CC(=O)c1c(C)[nH]c(C(=O)OCc2ccccc2F)c1C,-5,-1,7.2,0.2%,3,1.7
CC(C)c1ccc(Oc2cccc(C(=O)/C(C#N)=C/N(C)C)c2)cc1,-1,0,-1.7,-0.9%,-1,-1.0
COc1ccc(C2c3ccc4ccccc4c3Oc3ncn4nc(Cc5ccccc5)nc4c32)cc1OC (stereo not drawn),-1,7,-0.6,9.3%,-5,-0.6
Cc1ccc(C2C3=C(NCCN=C3c3ccccc3)C(=O)N2c2ccccc2)cc1 (stereo not drawn),0,12,-1.1,.,5,3.3
CCCCC[n+]1ccn(-c2nc3ccccc3nc2[N-]S(=O)(=O)c2ccc(C)cc2)c1,4,2,-2.3,-0.1%,-10,0.6
CC12CCC(C(=O)N(CC(O)CN3CCN(Cc4ccccc4)CC3)C1=O)C2(C)C (stereo not drawn),6,5,-3.4,0.9%,-23,-0.9
O=[N+]([O-])c1cccc(-c2nnc(-c3ccccc3)o2)c1,-1,-26,-0.7,2.9%,-4,0.7
COc1ccc(C2=Nc3ccccc3NC(=O)C2N(C(=O)c2cc3ccccc3[nH]2)c2ccccc2)cc1 (stereo not drawn),-14,-10,2.6,2.2%,2,-0.4
Cc1nc(CC(=O)O)c(-c2ccccc2)s1,7,5,-2.6,-0.9%,15,-0.6
COCCNC(=O)C1(C)CCCN(Cc2ccc(Cl)nc2)C1 (stereo not drawn),-2,2,-3.5,-0.5%,-3,-0.5
CC1Cc2cc(-c3csc(N)n3)ccc2O1 (stereo not drawn),-8,-4,8.6,1.0%,-7,-0.8
Cc1scc(C(=O)N/N=C/c2ccsc2)c1C,5,5,-6.9,1.1%,-16,-0.8
Nc1nnn(CC(=O)N/N=C/c2cccc3ccccc23)n1,1,0,-3.8,-1.4%,-3,-0.4
C=CC[n+]1c(-c2ccc(C)cc2)csc1NNC(=O)Nc1ccccc1,?,7,4.3,-4.0%[38.3 µM],-2,1.4
CNC(=O)C(=O)NCC1OCCN1S(=O)(=O)c1ccc(C)cc1 (stereo not drawn),5,-1,-4.2,-0.9%,-3,0.4
O=C(N/N=C\c1ccncc1)c1ccc(Br)s1,-7,-14,-4.9,-0.4%,-6,-0.3
CCOC(=O)C1CCN(C(=O)Nc2ccccc2Cl)CC1,-12,-5,1.1,-1.1%,5,0.4
CC1(C)Cc2c(sc(/N=C/N3CCOCC3)c2C#N)C(C)(C)N1,1,4,-1.1,3.9%,1,-0.5
Cc1[nH]nc2c1C(c1cccs1)C1=C(CC(C)(C)CC1=O)N2 (stereo not drawn),5,-5,-1.8,1.1%,3,-1.2
CCCN1CNC(=S)N(c2ccccc2OCC)C1,6,-15,1.9,-0.7%,4,1.8
O=C(Cc1ccc(NS(=O)(=O)c2ccc(F)cc2)cc1)NCc1cccnc1,5,3,-0.2,1.8%,-4,-0.1
NC(=O)CC(NC(=O)c1ccccc1)c1ccc(NCCc2cccc(F)c2)c([N+](=O)[O-])c1 (stereo not drawn),-12,-11,-2.1,2.2%,-11,-0.4
Cc1ccc(C(=O)C(C)OC(=O)CCS(=O)(=O)c2ccc(C)cc2)cc1 (stereo not drawn),12,7,-0.2,-3.2%,5,1.8
C[C@H](CO)N1C[C@H](C)[C@@H](CN(C)C(=O)NC2CCCCC2)Oc2ccc(NC(=O)C3CCCCC3)cc2C1=O,6,-13,-1.9,0.3%,-1,-0.4

# Profiles, looked up by structure:
# `CC1(C)Cc2c(sc(/N=C/N3CCOCC3)c2C#N)C(C)(C)N1` reads Six1-Eya2 blk: 1; CtBP-E1A inh: 4; D2 ag: -1.1; PINK1 expr mod: 3.9%; D2 PAM: 1; TRPML1 ag: -0.5
# `Cc1scc(C(=O)N/N=C/c2ccsc2)c1C` reads Six1-Eya2 blk: 5; CtBP-E1A inh: 5; D2 ag: -6.9; PINK1 expr mod: 1.1%; D2 PAM: -16; TRPML1 ag: -0.8

# New compounds follow
SMILES,Six1-Eya2 blk,CtBP-E1A inh,D2 ag,PINK1 expr mod,D2 PAM,TRPML1 ag
CCOC(=O)Cn1c(=O)oc2cc(S(=O)(=O)N(C)c3ccc(OC)cc3)ccc21,7,1,5.6,-2.6%,5,0.1
CN(CC(=O)Nc1ccc(F)cc1)C(=O)CNC(=O)C1CCCCC1,9,-4,-0.3,1.5%,-4,0.2
CCc1ccc(S(=O)(=O)c2nnn3c2nc(N2CCOCC2)c2ccccc23)cc1,3,-1,-5.5,-0.4%,-2,-0.6
C=CCSC1=N/C(=C\c2cccnc2)C(=O)N1c1ccc(OC)cc1,0,-3,-2.9,13%,-18,1.5
Cc1cc(C)c(NC(=S)N2CCN(c3ccc([N+](=O)[O-])cn3)CC2)cc1C,-5,-5,0.2,4.0%,-13,1.1
CC(=O)c1c(C)oc2ccc(NS(=O)(=O)c3ccc(C(=O)O)cc3)cc12,-10,-6,-0.7,-2.8%,-8,0.0
Cc1oc2c(cc(NS(=O)(=O)c3ccc(F)cc3)c3ccccc32)c1C(=O)O,-7,-19,4.2,-0.1%,22,-0.1
CSc1ccccc1NC(=O)COC(=O)CCCOc1ccc(C)cc1,18,-15,-0.6,1.1%,0,2.4
CC(C)Nc1ccc(C(CC(N)=O)NC(=O)c2ccc(Br)cc2)cc1[N+](=O)[O-] (stereo not drawn),-6,0,-6.0,0.9%,-6,0.2
O=C(O)c1ccc(CSc2nc3ccc(NC(=O)c4ccccc4C(=O)O)cc3s2)cc1,-14,-2,-4.1,0.1%,-1,-0.4
CCOC(=O)N1CCN(C(=O)c2cnc3n(c2=O)CCS3)CC1,4,10,-2.0,-0.8%,12,-0.8
Cc1ccc(-c2nc(CN(C)C)cc(CN(C)C)c2O)cc1,-11,-6,-2.2,-0.5%,-11,1.3
O=C(COC(=O)c1n[nH]c(=O)c2ccccc12)Nc1ccccc1,3,-5,-2.1,-0.2%,-24,1.8
Cc1cc(C)n2nc(SCC(=O)Nc3ccccc3C)nc2n1,-9,-1,-2.5,-2.7%&-0.6%,0,-0.5&-0.1
CCCN(CCC)C(=O)c1cn(C)c2ccc(S(=O)(=O)N3CCCC3)cc2c1=O,9,.,-0.3,-0.2%,2,4.3
CCOc1ccc(-c2nnn(CC(=O)Nc3cccc(OC)c3)n2)cc1OCC,-7,-8,-2.2,.,-3,2.0
COc1cccc(-c2csc3nnc(SCC(=O)NCc4cccs4)n23)c1,3,1,1.3,-4.2%[38.3 µM],-10,4.1
Cc1ccc(C(=O)N/N=C/c2ccc(-c3ccc(Br)cc3[N+](=O)[O-])o2)o1,?,-20,14,0.3%,-3,-0.1
